Calb FLC – C. albicans growth modulation with fluconazole; C. albicans CaCi-2 (fluconazole-resistant clinical isolate) + fluconazole, Alamar Blue growth, 48 h; growth inhibition, % (test concentration not listed); 0.57% of 300,000 active;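 active = most replicates above 75%; inconclusive = exactly half above 75%; inactive = most below 75%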;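 note: all wells also contain fluconazole at 8 µg/ml as a sub-toxic cotreatment; 0% = median of DMSO wells and 100% = median of geldanamycin control wells; wells of about 8 µL received 7.5 nL stock; the first replicate is given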
rRNA inh HTS – inhibits bacterial ribosomal RNA function over humanized ribosomes; 1.6% of 350,000 active; E. coli WT GFP vs humanized-ribosome RFP mutants, fluorescence, 24 h; active compounds read low; DMSO median 0, no signal -100; AID 720706; GFP signal change (wild-type ribosome), % (concentration not given with the values);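 active = significant combined selectivity score with lowered wild-type GFP, culture density cut under 30%, mutant RFP and density less affected; inactive = any of these conditions unmet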; note: one replicate is shown; some compounds called inactive have numbers as strong as hits
ALR inh – inhibitors of human sulfhydryl oxidase ALR; P55789; purified ALR, DTT oxidation, H2O2 HRP-luminol luminescence; inhibition, % (test concentration not listed); 3.8% of 290,000 active; AID 485317;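 active = mean and each replicate at 75% or more; inconclusive = only one of the two met; inactive = neither met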;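 note: stock transfer was 7.5 nL into about 7.5 µL; 0% = neutral wells and 100% = wells with inactivated enzyme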
Bfl-1 A1 inh – inhibitors of the anti-apoptotic protein A1, read as caspase activation. caspase activation, % (no concentration beside the values). 0.066% of 330,000 active. MEF A1-2A-BIM cells, Caspase-Glo 3/7 luminescence, 3 h; percent of clofoctol response, vehicle zero;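 active = over half of replicate activation scores above 10%, or exactly half above 10 with the replicate mean above 10; inconclusive = replicate mean below 10 yet half the replicates above 10; inactive = over half of replicates below 10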;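 note: wells of about 30 µL received 50 nL stock; many hits fall short of the cut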
B2AR ag – agonists of human beta-2 adrenergic receptor inducing internalization | 0.43% of 340,000 active | Am2.2-beta2AR cells, FAP receptor internalization, flow cytometry; reference of the scale not given here | response, % (concentration not given with the values) | P07550;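 active = response above a set limit, near 3 SD of response in nonfluorescent compounds, cut at about 42% in these data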;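 note: stock transfer was 100 nL into about 11 µL; a reference agonist was the positive control; negative values mostly stem from fluorescent compounds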
T cruzi inh – T. cruzi replication inhibition; T. cruzi beta-gal in NIH3T3, luminescence, 90 h; inhibition, % (no concentration beside the values); 1.4% of 300,000 active;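 active = mean inhibition across valid replicates above about 55%, limit read from the data; inconclusive = mean below that limit but half or more replicates reach it; inactive = mean below it, under half of replicates reach it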;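 note: signal also drops with host cell toxicity which is not excluded here; 0% = plate median of DMSO wells and 100% = zero luminescence signal; higher percent means less beta-gal luminescence so fewer parasites; stock transfer was 50 nL into about 50 µL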
Beta cell apopt – blocks beta cell apoptosis; INS-1E cytokine-induced death, ATP luminescence, 48 h; percent of positive-control rescue, neutral wells zero; protection from apoptosis, % (no concentration beside the values); 0.8% of 300,000 active;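 active = all replicates at 75% or more, or half of them and the mean; inconclusive = half reach 75% but not the mean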;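 note: 0% = cytokine-treated negative control wells and 100% = positive control rescue; higher means more ATP so stronger rescue from cytokine killing; wells of about 40 µL received 100 nL stock; the first replicate is given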
LANA-H2A inh – blocks KSHV LANA binding to histone H2A/H2B. AID 2629. cell-free LANA-H2A/H2B peptide, fluorescence polarization. inhibition, % (concentration not given with the values). 0.6% of 320,000 active. Q9QR71; in the data active = inhibition mostly above about 10%, no sharp cut-off; inactive = mostly below about 6.7%;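 note: stock transfer was 7.5 nL into about 10 µL; 0% = median of vehicle wells and 100% = median of positive control wells; one replicate is shown; the record names a cut of 25% in any replicate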
Target sequence (Q9QR71 whole entry, looked up): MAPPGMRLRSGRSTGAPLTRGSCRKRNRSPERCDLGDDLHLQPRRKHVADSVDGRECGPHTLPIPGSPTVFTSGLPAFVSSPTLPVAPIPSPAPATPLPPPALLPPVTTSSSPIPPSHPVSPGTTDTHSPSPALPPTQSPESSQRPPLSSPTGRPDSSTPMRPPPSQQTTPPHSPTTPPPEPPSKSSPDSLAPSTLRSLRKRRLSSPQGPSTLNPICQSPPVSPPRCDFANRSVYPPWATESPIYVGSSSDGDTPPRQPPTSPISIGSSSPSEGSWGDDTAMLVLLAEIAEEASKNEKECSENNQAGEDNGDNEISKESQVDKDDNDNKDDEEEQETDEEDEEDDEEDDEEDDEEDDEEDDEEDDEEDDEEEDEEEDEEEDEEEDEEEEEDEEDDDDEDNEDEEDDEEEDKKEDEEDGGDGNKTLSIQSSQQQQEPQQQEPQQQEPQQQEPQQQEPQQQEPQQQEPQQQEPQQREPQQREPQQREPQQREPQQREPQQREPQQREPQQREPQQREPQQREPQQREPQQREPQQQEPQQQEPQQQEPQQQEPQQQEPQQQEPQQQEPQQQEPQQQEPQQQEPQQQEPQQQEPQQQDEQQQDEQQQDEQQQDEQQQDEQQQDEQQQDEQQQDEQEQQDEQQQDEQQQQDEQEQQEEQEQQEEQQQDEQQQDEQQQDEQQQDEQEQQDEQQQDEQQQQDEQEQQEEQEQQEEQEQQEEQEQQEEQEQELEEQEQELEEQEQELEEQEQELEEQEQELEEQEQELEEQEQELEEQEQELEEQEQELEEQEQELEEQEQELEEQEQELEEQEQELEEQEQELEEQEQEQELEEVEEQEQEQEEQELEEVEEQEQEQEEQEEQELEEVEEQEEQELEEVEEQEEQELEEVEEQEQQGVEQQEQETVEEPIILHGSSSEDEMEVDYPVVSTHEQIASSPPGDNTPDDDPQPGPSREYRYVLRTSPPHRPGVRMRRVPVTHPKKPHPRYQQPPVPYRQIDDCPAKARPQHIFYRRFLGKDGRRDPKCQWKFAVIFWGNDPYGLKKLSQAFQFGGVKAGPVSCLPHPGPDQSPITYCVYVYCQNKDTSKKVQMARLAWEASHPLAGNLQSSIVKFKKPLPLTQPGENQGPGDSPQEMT
rRNA inh HTS OD600 – also measured in rRNA inh HTS; calls as there; OD600 change, %; measured here: OD600 growth;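 optical density of the mix in the first replicate; 0 = DMSO median and -100 = no signal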
rRNA inh HTS RFP – recorded beside rRNA inh HTS, whose call it bears; RFP signal change, %; measured here: RFP humanized mutant strains;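 first replicate; 0 = DMSO median and -100 = no signal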
Numbers without * were called inactive; ? = inconclusive; · = no result given. Some of the compounds tested. The share of hits here may be higher or lower than overall.

nr	SMILES	Calb FLC	rRNA inh HTS	rRNA inh HTS OD600	rRNA inh HTS RFP	ALR inh	Bfl-1 A1 inh	B2AR ag	T cruzi inh	Beta cell apopt	LANA-H2A inh
1	CC(=O)Nc1ccc(S(=O)(=O)N(C)CC(=O)NNc2c(F)c(F)cc(F)c2F)cc1	·	-1	4	-0.1	-6	1.0	1	·	-3	-5.8
2	Cc1cnc(C(=O)Nc2cccc(-c3nnc4n3CCCCC4)c2)cn1	-3	·	·	·	-3	-0.2	0	3	-1	0.3
3	CCOc1ccccc1-c1nc(-c2cc3ccccc3nc2OC)no1	-17	·	·	·	0	-0.6	8	21	2	-1.6
4	CC1CCCCN1c1nnc(NC(=O)Cn2c(=O)oc3ccccc32)s1 (stereo unspecified)	-2	-1	-10	3.8	-12	0.4	3	-4	-3	1.2
5	N#Cc1ccc(-c2nc3ccccc3nc2-c2ccccc2)cc1C#N	3	2	8	-2.1	55	0.0	-9	-3	8	1.5
6	Cc1cc(Cl)c(S(=O)(=O)Nc2ccc3c(c2)OCCO3)cc1OCC(=O)NC1CCCCC1	53	·	·	·	5	-0.8	-5	13	3	-1.6
7	COc1ccc(OC)c(/C=C/C(=O)N2CCN(S(=O)(=O)c3cc(C)ccc3C)CC2)c1	·	-5	-25	5.2	-5	0.3	12	·	0	2.4
8	C=CCOc1cccc(CNCCCN2CCOCC2)c1	9	13	7	-0.4	-12	0.0	0	-2	-3	0.5
9	O=C(COC(=O)c1ccccc1C(=O)c1ccccc1)NCCc1ccc(Cl)cc1Cl	5	-25	-28	-15	-2	-0.2	-10	4	-3	3.1
10	Fc1cccc(-c2n[nH]c(=S)n2-c2ccccc2)c1	-1	3	2	-3.4	10	-0.4	-8	1	0	-1.1
11	COc1ccc(NC(=S)NNC(=O)C2CC2c2ccc(C)cc2)cc1 (stereo unspecified)	9	·	·	·	29	0.0	-5	4	0	-0.7
12	Cc1ccc(S(=O)(=O)N2CCCCC2)cc1NC(=O)COC(=O)Cc1cccc(C(F)(F)F)c1	-5	·	·	·	-16	0.0	-2	-2	-7	0.4
13	CS(=O)(=O)c1ccc2sc(NC(=O)c3cc4ccccc4o3)nc2c1	-3	-10	-9	19	8	-4.7	-11	-15	10	-5.1
14	Cc1ccccc1C1CC(c2ccccc2)Nc2ncnn21 (stereo unspecified)	-1	-3	-14	0.7	-3	-0.4	4	-5	3	-4.4
15	COc1ccccc1N1CCN(CCCNc2c(C)c(=O)n(C)c(=O)n2C)CC1	0	·	·	·	21	-0.4	2	-2	·	-4.0
16	Cn1c(NC(=O)c2ccccc2)c(-c2ccccn2)c(=O)c2ccccc21	-23	·	·	·	0	0.7	0	-12	-1	2.2
17	C=CCn1c(Sc2nncn2C)nc2c1c(=O)[nH]c(=O)n2C	1	·	·	·	·	0.1	0	-19	-7	-1.8
18	COc1ccc(C2C(C(C)=O)=C(O)C(=O)N2c2ccc(C)cc2)cc1 (stereo unspecified)	4	-24*	-19*	3.8*	-6	-0.3	-3	29	4	-3.2
19	COc1ccc(NC(=O)CN2CC(c3ccccc3)CC2=O)cc1OC (stereo unspecified)	-4	0	3	-1.5	·	-0.9	3	-10	2	3.7
20	OC1CCCCC1	·	7	2	0.5	0	0.4	-3	·	-3	-20
21	Cc1c(Cl)ccc2c(C(=O)Nc3cc(C(C)(C)C)on3)cc(-c3ccccn3)nc12	0	6	4	5.3	-4	-0.4	8	61*	·	-3.3
22	O=C(NCCN1CCOCC1)c1cc(S(=O)(=O)NCCCN2CCCC2=O)ccc1Cl	-5	·	·	·	·	1.5	-7	-11	0	0.3
23	O=C(NC1CCCCCC1)C1CC(=O)N(c2ccc(Cl)cc2)C1 (stereo unspecified)	-3	3	8	-0.8	1	-0.3	-11	6	-2	-6.2
24	COc1ccc(C(C(=O)NCC2CCCO2)N(Cc2ccc(F)cc2)C(=O)CNC(=O)c2ccco2)cc1OC (stereo unspecified)	-3	·	·	·	-5	1.2	3	-8	-6	-2.4
25	COc1ccc(COCC(O)CN2CCc3ccccc3C2)cc1OC (stereo unspecified)	-19	3	8	-3.5	-30	0.8	-7	27	1	-3.6
26	COc1ccc(CCN(C)C(=O)COc2ccc(C(=O)c3ccccc3)cc2)cc1OC	5	-14	-12	-0.8	·	-0.9	-3	-7	-1	0.2
27	COc1cccc(C(=O)COC(=O)c2n[nH]c(=O)c3ccccc23)c1	-24	26	23	2.5	1	0.0	-5	-11	-1	4.0
28	CCn1cc(C(=O)Nc2cccc(C(=O)OC)c2)c(=O)c2ccc(C)nc21	-3	·	·	·	-3	0.2	-7	-24	0	4.2
29	O=C(O)CCCC(=O)N1CCc2cc(S(=O)(=O)NCc3ccc(F)cc3)ccc21	12	-2	1	-5.7	-8	-0.3	2	-2	4	3.1
30	O=C(Nc1ccc(Br)cc1)C1OCCc2ccccc21 (stereo unspecified)	-1	-11	-19	4.7	2	-0.5	-12	2	-5	-3.5
31	COc1cc(/C=N/Nc2nc3ccccc3s2)ccc1OC(=O)c1ccccc1F	0	5	3	5.2	-13	-4.0	-4	-17	-4	5.8
32	CC(=O)Nc1ccc(Nc2nc(-c3sc(C)nc3C)cs2)cc1	?	-7	2	-0.5	31	-0.2	-1	7	·	-1.1
33	O=C(OCC(=O)N(CCc1ccccc1)Cc1ccccc1)c1ccccc1NCCO	-10	2	-15	3.0	-9	-0.3	12	33	10	-0.9
34	CC(C)CNC(=O)c1ccc(NC(=O)c2cccs2)cc1	5	0	7	-3.7	-11	0.3	-15	5	5	6.3
35	CC(C)C(CC(=O)N1CCCCC1)C1CCOC(C)(C)C1 (stereo unspecified)	9	·	·	·	2	-1.0	8	-7	-1	1.5
36	NC(=O)C1CCN(C(=O)C2CCC(=O)N(CC3CCCCC3)C2)CC1 (stereo unspecified)	-4	4	5	-2.4	-3	0.0	-3	-7	-5	-4.8
37	O=C(N/C(=C/c1ccco1)C(=O)N1CCCCCC1)c1cccs1	?	·	·	·	97*	-0.6	0	-14	-3	-0.3
38	CCN(CC)C(=O)c1cccc(-c2ccc(OC)cc2)c1	-16	·	·	·	-1	-1.3	-13	8	-2	-0.5
39	CC(C)NC(=O)c1onc(CSc2ccncc2)c1C(=O)NC(C)C	1	7	4	-1.1	-2	0.7	-6	-10	10	3.8
40	COc1cccc(-c2cn3nc(C)c(C)nc3n2)c1	3	·	·	·	-6	-7.5	-7	0	4	-0.8
41	CCN(c1ccccc1)S(=O)(=O)c1ccc(F)cc1C	·	·	·	·	0	0.1	9	·	-5	0.5
42	Cc1nn(C(C)(C)C)c(C)c1/C=N/OC(=O)Nc1ccc(Cl)cc1	-6	-27*	6.7*	-2.9*	3	-1.6	4	9	-3	-2.8
43	CCc1nc(SCc2ccccn2)[nH]c(=O)c1C	19	4	1	-1.8	-4	0.1	-3	11	-1	0.3
44	COc1cccc(N2CCN(C(c3ccccn3)c3nnnn3C(C)(C)C)CC2)c1 (stereo unspecified)	-4	·	·	·	36	1.1	2	12	-6	1.6
45	CCOc1cc(C(C(=O)NCC2CCCO2)N(C(=O)Cn2nnc3ccccc32)c2ccc(OC)c(OC)c2)ccc1O (stereo unspecified)	5	3	0	-0.3	·	-0.1	-4	-5	-5	1.0
46	COc1cnn(-c2ccccc2)c(=O)c1SCc1ccc(Cl)cc1Cl	1	·	·	·	98*	0.3	-2	-2	6	-2.8
47	O=C(c1cc(-c2cccs2)nc2ccccc12)N1CCN(c2ccccc2O)CC1	22	-9	-12	-3.5	-9	-0.7	-1	7	4	0.3
48	COc1ccc(Cl)cc1NC(=O)CN1CCC(n2nnc3ccccc32)CC1	21	·	·	·	·	0.2	-4	10	10	-5.9
49	CN(CC(=O)NCCCn1ccnc1)S(=O)(=O)c1ccc(Cl)cc1	·	·	·	·	·	0.4	-4	·	-1	-8.8
50	NS(=O)(=O)c1ccc(CNC(=O)c2ccc3c(c2)OCO3)cc1	·	7	15	0.6	·	0.8	3	·	-3	5.5
51	COc1cc(C)nc(N2CCCC(C(=O)Nc3cc(Cl)ccc3OC)C2)n1 (stereo unspecified)	-12	·	·	·	3	1.0	0	16	-10	4.0

A portion from the list above, for reference:
nr	SMILES	Calb FLC	rRNA inh HTS	rRNA inh HTS OD600	rRNA inh HTS RFP	ALR inh	Bfl-1 A1 inh	B2AR ag	T cruzi inh	Beta cell apopt	LANA-H2A inh
31	COc1cc(/C=N/Nc2nc3ccccc3s2)ccc1OC(=O)c1ccccc1F	0	5	3	5.2	-13	-4.0	-4	-17	-4	5.8
32	CC(=O)Nc1ccc(Nc2nc(-c3sc(C)nc3C)cs2)cc1	?	-7	2	-0.5	31	-0.2	-1	7	·	-1.1
33	O=C(OCC(=O)N(CCc1ccccc1)Cc1ccccc1)c1ccccc1NCCO	-10	2	-15	3.0	-9	-0.3	12	33	10	-0.9
34	CC(C)CNC(=O)c1ccc(NC(=O)c2cccs2)cc1	5	0	7	-3.7	-11	0.3	-15	5	5	6.3
35	CC(C)C(CC(=O)N1CCCCC1)C1CCOC(C)(C)C1 (stereo unspecified)	9	·	·	·	2	-1.0	8	-7	-1	1.5
36	NC(=O)C1CCN(C(=O)C2CCC(=O)N(CC3CCCCC3)C2)CC1 (stereo unspecified)	-4	4	5	-2.4	-3	0.0	-3	-7	-5	-4.8
37	O=C(N/C(=C/c1ccco1)C(=O)N1CCCCCC1)c1cccs1	?	·	·	·	97*	-0.6	0	-14	-3	-0.3

Screening results as filed in PubChem BioAssay.
